Source: PubChem
VDR inh: Inhibitors of the vitamin D receptor (VDR): qHTS; Vitamin D3 receptor (Homo sapiens), P11473; VDR-SRC2-3 peptide fluorescence polarization, 2 h; Potency, µM, for inactives: max response, negative = inhibition, actives largely listed as inhibitors; 400,000 compounds, 0.93% hits; AID 504847, 2011; active = well fitted inhibition curve with a large enough effect; inconclusive = small, poorly fitted or top-dose-only effect, or another doubt; inactive = no such curve, though single readings can be large or run the other way; also: series mostly up to about 120 µM
Target sequence (P11473 whole entry, looked up): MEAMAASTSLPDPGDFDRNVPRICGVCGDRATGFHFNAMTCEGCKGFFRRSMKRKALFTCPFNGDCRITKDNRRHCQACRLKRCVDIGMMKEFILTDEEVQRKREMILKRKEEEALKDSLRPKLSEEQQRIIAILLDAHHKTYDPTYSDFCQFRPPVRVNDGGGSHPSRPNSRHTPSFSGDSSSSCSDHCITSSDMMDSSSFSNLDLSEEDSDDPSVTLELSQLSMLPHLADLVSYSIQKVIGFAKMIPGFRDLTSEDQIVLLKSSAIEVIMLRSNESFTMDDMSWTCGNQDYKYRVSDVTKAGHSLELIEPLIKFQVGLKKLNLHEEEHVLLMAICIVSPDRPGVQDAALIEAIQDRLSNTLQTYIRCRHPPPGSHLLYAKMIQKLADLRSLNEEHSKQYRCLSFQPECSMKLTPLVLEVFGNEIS
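Inhibition of the VDR/SRC2-3 peptide interaction is quantified by fluorescence polarization. Compounds (23 nl, pintool) incubate with the reagents for 2 hours at ambient room temperature.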
Starred values were filed as active, the others as inactive; [ ] = dose if it differs, or a comment. % is scaled to controls: 0 for no effect and ±100 for the full control effect; potency is read from the fitted curve at half-maximal effect.

A first look (3 entries):
What do the screens show for `Cc1nn(Cc2c(F)c(F)c(F)c(F)c2F)c(C)c1NC(=O)c1cccc(COc2ccccc2Cl)c1`?
VDR inh: -7.9%

What do the screens show for `O=C(Nc1ccc(N2CCOCC2)cc1)c1ccc(-c2ccccc2[N+](=O)[O-])o1`?
VDR inh: -16.6%

How did O=C(NCCc1ccccc1Cl)c1ccc2c(c1)nc1n2CCCCC1 do in these assays?
VDR inh: 3.9%

The whole of this part, previewed entries included:
What do the screens show for `Cc1nn(Cc2c(F)c(F)c(F)c(F)c2F)c(C)c1NC(=O)c1cccc(COc2ccccc2Cl)c1`?
VDR inh: -7.9%

What do the screens show for `O=C(Nc1ccc(N2CCOCC2)cc1)c1ccc(-c2ccccc2[N+](=O)[O-])o1`?
VDR inh: -16.6%

How did O=C(NCCc1ccccc1Cl)c1ccc2c(c1)nc1n2CCCCC1 do in these assays?
VDR inh: 3.9%

Results for O=C(OC1CCOC1=O)c1cc(-c2ccccc2)nc2ccccc12 (centres undefined) ?
VDR inh: 3.5%

What do the screens show for `CCCc1nc2sc3c(N4CCC(C)CC4)ncnc3c2c2c1CCCC2`?
VDR inh: -2.1%

What do the screens show for `CC(C)(CC(=O)O)CC(=O)N1CCN(c2nc3ccc(Cl)cc3s2)CC1`?
VDR inh: 37.8%[activator]

How did COc1cccc(C(=O)/C=C/c2ccc(OCC#N)c(OC)c2)c1 do in these assays?
VDR inh: 50.1µM*

Results for NC(=O)c1cc(S(=O)(=O)NCC2CCC(C(=O)Nc3ccc(Cl)cc3)CC2)cs1 (centres undefined) ?
VDR inh: 6.4%

What do the screens show for `CN(C)S(=O)(=O)c1ccc(Cl)c(NC(=O)COc2ccccc2[N+](=O)[O-])c1`?
VDR inh: -26.7%

How did CC(=O)n1cc([C@H]2C=C(C(=O)N3CCN(Cc4ccccc4)CC3)O[C@@H](OCc3ccc(CO)cc3)C2)c2ccccc21 do in these assays?
VDR inh: -3.7%

How did O=C(Cc1ccccc1)Nc1ccc(C(=O)NCC2COc3ccccc3O2)cc1 (centres undefined) do in these assays?
VDR inh: -23.9%

What do the screens show for `CC(=NNC(=O)c1ccc2nc[nH]c2c1)c1ccc(Br)cc1`?
VDR inh: -21.3%

Results for O=C(NC1CCCCC1)C(c1ccco1)N(C(=O)c1csnn1)c1cccc(Cl)c1 (centres undefined) ?
VDR inh: 3.8%

What do the screens show for `COc1cccc(CNC(=O)CCCSc2ccccc2)c1`?
VDR inh: -6.9%

What do the screens show for `CSc1ccc(CN(C)C(=O)c2cc(S(=O)(=O)NCc3ccccc3)ccc2C)cc1`?
VDR inh: -28.7%

How did CC1(C)O[C@@H]2[C@H](O1)[C@@H](COS(=O)(=O)O)O[C@H]2n1cc(Br)c(=O)[nH]c1=O do in these assays?
VDR inh: -0.4%

Results for Cc1ccc(-n2c(SCC(=O)Nc3cccc(S(=O)(=O)NC4=NCCCCC4)c3)nc3ccccc3c2=O)cc1C ?
VDR inh: -5.2%

What do the screens show for `CN(Cc1ccco1)c1nc(-c2cccnc2)nc2ccccc12`?
VDR inh: 31.6µM*

How did COc1ccc(OC)c(C2CC(=O)Oc3c2c(=O)n(C)c2ccccc32)c1 (centres undefined) do in these assays?
VDR inh: 8.7%

What do the screens show for `CC(C)[C@H](NC(=O)c1ccccc1Cl)C(=O)OCC(=O)Nc1ccc(S(=O)(=O)N2CCOCC2)cc1`?
VDR inh: -1.6%

How did Cn1cc(S(=O)(=O)N2CCN(C(=O)c3ccco3)CC2)c(=O)n(C)c1=O do in these assays?
VDR inh: -3.0%

What do the screens show for `CC(CCc1ccccc1)NCc1cccc2ccccc12` (centres undefined)?
VDR inh: -14.1%

What do the screens show for `O=C(Nc1ccc(F)cc1F)c1cccc(C(=O)Nc2ccc(F)cc2F)n1`?
VDR inh: 2.1%

How did COC(=O)C(C)(C(=O)OC)c1ccc(C(F)(F)F)cc1[N+](=O)[O-] do in these assays?
VDR inh: 6.4%

The list goes on; the last 2 above are carried over.
What do the screens show for `O=C(Nc1ccc(F)cc1F)c1cccc(C(=O)Nc2ccc(F)cc2F)n1`?
VDR inh: 2.1%

How did COC(=O)C(C)(C(=O)OC)c1ccc(C(F)(F)F)cc1[N+](=O)[O-] do in these assays?
VDR inh: 6.4%

Results for COc1cccc(NC(=O)CC(=O)c2ccccc2)c1 ?
VDR inh: -7.1%

What do the screens show for `CC(C)OC(=O)c1sc2nc(-c3ccccc3)ccc2c1N`?
VDR inh: 4.9%

Results for Cc1csc(NC(=O)C2CCCN(S(=O)(=O)c3ccc4c(c3)oc(=O)n4C)C2)n1 (centres undefined) ?
VDR inh: -5.8%

Results for Cc1cc(OC(C)C(=O)NCc2ccncc2)c2c(C)c(C)c(=O)oc2c1 (centres undefined) ?
VDR inh: inconclusive

How did COc1ccccc1N1CCN(C(=O)c2ccccc2Oc2ccccc2)CC1 do in these assays?
VDR inh: -4.4%

What do the screens show for `O=C(CNC(=O)c1cccc([N+](=O)[O-])c1)NC1CCCc2ccccc21` (centres undefined)?
VDR inh: 3.2%

Results for Cc1ccc(Cl)cc1N1CCN(C(=O)Cn2nc(C)n3c(cc4sccc43)c2=O)CC1 ?
VDR inh: -16.4%

What do the screens show for `CCOc1ccccc1C(=O)NCC(=O)Nc1ccc2c(c1)OCO2`?
VDR inh: 12.1%

Results for Cc1occc1-c1nnc(SCC(=O)N2CCCc3ccccc32)n1Cc1ccco1 ?
VDR inh: -0.9%

What do the screens show for `O=C(Nc1ccc(F)cc1)N1CCOCC1`?
VDR inh: 14.1%

What do the screens show for `CCOc1ccc(S(=O)(=O)N2CCN(C(=O)C3CC3C)CC2)cc1` (centres undefined)?
VDR inh: 4.3%

How did CCN(CC)S(=O)(=O)c1ccc(NC(=O)c2cccs2)cc1 do in these assays?
VDR inh: 5.8%

What do the screens show for `Cc1ccc(S(=O)(=O)NC(CC(C)C)C(=O)N2CCOCCOCCOCC2)cc1` (centres undefined)?
VDR inh: 17.8%

What do the screens show for `O=C(COC(=O)c1cc(NS(=O)(=O)c2cccs2)ccc1O)Nc1cc(Cl)ccc1Cl`?
VDR inh: 7.1%

Results for CCC(=O)Oc1ccc(C(=O)Nc2c[nH]c(=O)[nH]c2=O)cc1 ?
VDR inh: -9.8%

Results for COC(=O)c1ccc(CNC(=O)CSc2nc3ccccc3[nH]2)cc1 ?
VDR inh: 9.0%

Results for CCOc1ccc(CNC(=O)c2ccc3c(c2)nc2n3CCCCC2)cc1 ?
VDR inh: -1.8%

What do the screens show for `Cc1cccc(C(=O)Nc2nnc(S(=O)(=O)N3CCCCCC3)s2)c1`?
VDR inh: -9.2%

Results for Cc1cc(C)cc(NC(=O)c2cccc(C(=O)Nc3cc(C)cc(C)c3)c2)c1 ?
VDR inh: 27.8%

How did Cc1cc(C)n(-c2nc(C)nc3sc4c(c23)CCC(C)C4)n1 (centres undefined) do in these assays?
VDR inh: -0.7%

What do the screens show for `CSc1nsc(SC)c1C(=O)O`?
VDR inh: 12.6%

What do the screens show for `COc1ccccc1NC(=O)CN(Cc1ccco1)C(=O)c1ccc(Cl)nc1`?
VDR inh: 8.7%

What do the screens show for `COc1cc(C(=O)Nc2nc(-c3cc(C)ccc3C)c(C)s2)ccc1OCC(=O)Nc1ccc(F)cc1`?
VDR inh: -15.0%

What do the screens show for `CCOC(=O)c1cnc2c(Cl)c(Cl)ccc2c1Nc1ccc(N(C)C)cc1`?
VDR inh: -20.1%

Among those listed so far, these contain bromine.
What do the screens show for `CC(=NNC(=O)c1ccc2nc[nH]c2c1)c1ccc(Br)cc1`?
VDR inh: -21.3%

How did CC1(C)O[C@@H]2[C@H](O1)[C@@H](COS(=O)(=O)O)O[C@H]2n1cc(Br)c(=O)[nH]c1=O do in these assays?
VDR inh: -0.4%

(continued)
How did COCc1cc(C)nc(OCC(=O)N/N=C/c2ccc(C)cc2)c1C#N do in these assays?
VDR inh: -1.5%

Results for Cc1ccc(C)c(N2CCN(C(=O)Cn3ncc4c([nH]c5ccc(C)cc54)c3=O)CC2)c1 ?
VDR inh: -6.6%

Results for FC(F)(F)c1cc(NC(=S)NC(c2ccccc2)c2ccccc2)cc(C(F)(F)F)c1 ?
VDR inh: -21.3%

How did COc1cc2c(C#N)c(N3CCCCC3)nc(N)c2c(N)n1 do in these assays?
VDR inh: -14.8%

How did C#CCSc1nc2ccccc2n1C(=O)c1ccc(S(=O)(=O)N2CCCCC2)cc1 do in these assays?
VDR inh: 12.9%

How did Cc1cc(C)nc(CC(N)=O)n1 do in these assays?
VDR inh: -2.9%

How did Cc1ccc(O)c(C(CC(=O)NCc2cccnc2)c2ccccc2)c1 (centres undefined) do in these assays?
VDR inh: 2.6%

What do the screens show for `COc1cc(N)c(Cl)cc1C(=O)OCC(=O)Nc1cccnc1Cl`?
VDR inh: -11.7%

Results for CCNc1c(N)c(=O)oc2ccccc12 ?
VDR inh: 4.6%

What do the screens show for `COc1cc(/C=N/Nc2ccc(F)cc2F)cc(OC)c1OC`?
VDR inh: 7.8%

How did Cc1cc(C)c(C#N)c(SCc2ccccc2C)n1 do in these assays?
VDR inh: 7.6%

What do the screens show for `Clc1nc(NC2CCCC2)nc(N2CCOCC2)n1`?
VDR inh: -22.2%

How did CC(=O)NCCNC(=O)CCCc1nnc2n(C)c(=O)c3sccc3n12 do in these assays?
VDR inh: 22.2%

What do the screens show for `CCOC(=O)c1ccccc1NC(=O)Cn1c(=O)n(CCC(=O)NCc2ccccc2OC)c(=O)c2ccccc21`?
VDR inh: -24.2%

What do the screens show for `CC(C)C[C@H](NC(=O)N1CCn2c1nc1ccccc12)C(=O)NCC1CCCO1` (some centres undefined)?
VDR inh: 4.5%

What do the screens show for `c1ccc(N2CCN(c3ncccn3)CC2)cc1`?
VDR inh: 3.9%

Results for COC(=O)c1[nH]nc(C(=O)OC(C)(C)C)c1-c1ccccc1 ?
VDR inh: -13.5%

What do the screens show for `CC1CN(C(=O)C(Sc2ccccc2)c2ccccc2)CC(C)O1` (centres undefined)?
VDR inh: 1.4%

What do the screens show for `CC1(C)Cc2c(c(-c3ccccc3)[nH]c(=O)c2C#N)CO1`?
VDR inh: -3.2%

What do the screens show for `C[C@@H](OC(=O)c1[nH]cnc1C(=O)NCc1ccc(CNC(=O)OC(C)(C)C)cc1)c1ccccc1`?
VDR inh: 1.9%

How did COc1ccccc1-c1noc(CCC(=O)NC2CCCCC2)n1 do in these assays?
VDR inh: -13.2%

Results for O=C1c2ccccc2C(=O)N1Cc1ccc2c(c1)OCO2 ?
VDR inh: 10.9%

How did NS(=O)(=O)c1ccc(CCNc2nccn(-c3cccc(C(F)(F)F)c3)c2=O)cc1 do in these assays?
VDR inh: 15.0%

How did COC(=O)c1ccc(C(=O)OC)c(NC(=O)CS(=O)(=O)Cc2ccccc2)c1 do in these assays?
VDR inh: 9.3%

What do the screens show for `COc1cccc(-n2c(SCC(=O)Nc3sc4c(c3C(N)=O)CCC4)nc3ccccc3c2=O)c1`?
VDR inh: 0.0%

Results for COc1ccccc1NC(=O)c1cc(-c2ccc(C)o2)nc2ccccc12 ?
VDR inh: -6.1%

How did CCC(C)(C)NC(=O)C(C(C)C)N(CC1CCCO1)C(=O)CNS(=O)(=O)c1ccc(F)cc1 (centres undefined) do in these assays?
VDR inh: 9.0%

What do the screens show for `CNS(=O)(=O)c1cnccc1N1CCN(c2cccc(C(F)(F)F)c2)CC1`?
VDR inh: -5.4%

How did COCCNCC(=O)N1CCCCCC1 do in these assays?
VDR inh: 1.0%

What do the screens show for `CCOC(=O)N1CCC(N(CCN(C)C)C(=S)Nc2ccccc2C)CC1`?
VDR inh: -12.0%

How did CC(=O)c1ccc(NC(=S)Nc2cccc3ccccc23)cc1 do in these assays?
VDR inh: inconclusive

What do the screens show for `CC(=O)Nc1ccc(S(=O)(=O)NCc2ccc(C)cc2)cc1`?
VDR inh: 13.1%

What do the screens show for `CC(=O)c1cccc(NC(=O)c2ccc(C(=O)Nc3cccc(C(C)=O)c3)nc2)c1`?
VDR inh: 13.0%

How did O=C(NCCN1CCOCC1)C(=O)NCC1OCCN1S(=O)(=O)c1cc(F)ccc1F (centres undefined) do in these assays?
VDR inh: -3.3%

How did FC(F)(F)c1cccc(OCc2noc(-c3ccsc3)n2)c1 do in these assays?
VDR inh: -6.8%

What do the screens show for `C[C@H]1CC[C@H]2C(=O)N[C@H](Cc3ccccc3)C(=O)N2[C@@H]1c1ccccc1`?
VDR inh: 4.5%

Ordered by molecular weight (descending): some entries from above.
How did CCC(C)(C)NC(=O)C(C(C)C)N(CC1CCCO1)C(=O)CNS(=O)(=O)c1ccc(F)cc1 (centres undefined) do in these assays?
VDR inh: 9.0%

How did O=C(NCCN1CCOCC1)C(=O)NCC1OCCN1S(=O)(=O)c1cc(F)ccc1F (centres undefined) do in these assays?
VDR inh: -3.3%

How did FC(F)(F)c1cccc(OCc2noc(-c3ccsc3)n2)c1 do in these assays?
VDR inh: -6.8%

How did COCCNCC(=O)N1CCCCCC1 do in these assays?
VDR inh: 1.0%

(continued)
Results for C=CC[C@@H](CC(=O)N(CCO)Cc1ccccc1)C(=O)NC[C@@H](OC(=O)[C@@H](CC=C)Cc1ccc(F)cc1)c1ccccc1 ?
VDR inh: -11.0%

How did Cc1ccc(-c2nn(-c3ccc(F)cc3)cc2C(=O)NCC2CCCO2)cc1 (centres undefined) do in these assays?
VDR inh: -15.3%

How did CCCCn1c(=O)[nH]c(=O)c2c1nc(-c1cc3c(cc1Br)OCO3)n2C do in these assays?
VDR inh: 0.4%

How did CCOC(=O)c1cccc(NC(=O)/C=C/c2ccc([N+](=O)[O-])cc2)c1 do in these assays?
VDR inh: 4.4%

Results for OC/C(Br)=C(\Br)CO ?
VDR inh: -9.9%

How did COc1cccc(/C=N/Nc2ncccc2[N+](=O)[O-])c1OC do in these assays?
VDR inh: 14.3%

What do the screens show for `C/C(=N\NC(=O)C(C)n1nc(C)c([N+](=O)[O-])c1C)c1ccccc1O` (centres undefined)?
VDR inh: -27.8%

How did CCCCNc1c(-c2ccc(-c3ccc(C(C)=O)cc3)c(OC)c2)nc2cc(C)ccn12 do in these assays?
VDR inh: -6.9%

Results for CCOC(=O)CC1C(=O)NCCN1Cc1cccs1 (centres undefined) ?
VDR inh: -0.1%

Only part of the results is shown; count on the stated rates, not on these rows.
